NS1 function inh = influenza NS1 inhibition | 270,000 tested, 0.4% active | Potency, µM (highest dose often 46.1 µM), for inactives: at the top dose activity, positive = more growth | AID 2326 | S. cerevisiae slowed by influenza A NS1, growth recovery by OD600; active means well fitted rising curve with a large enough effect; inconclusive means small, poorly fitted or top-dose-only effect; inactive means no such curve, though single readings can be large or run the other way; also: nearly all actives have a fitted effect of over 50% in size
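Recovery from NS1-induced slow growth read by OD600 in budding yeast switched to galactose assay medium (pH 6.0, -URA) at 1:100 dilution. Compound 23 nl per well; the matching strain lacking NS1 serves as control.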
LASV entry inh = blocks Lassa virus binding to or entry into cells; 300,000 tested, 1.2% active; Lassa virus pseudotype entry inhibition, cell reporter; control for the full effect not named in the record; Potency, µM (top dose mostly 37.9 µM), without a hit: top-dose activity change, negative = inhibition, hits mostly inhibitors; active means well fitted inhibition curve with a large enough effect; inconclusive means small, poorly fitted or top-dose-only effect, or effect the other way; inactive means flat fitted curve, though single readings scatter; tested in HEK293 cells; also: % is scaled to controls: 0 for no effect and ±100 for the full control effect; nearly all actives have a fitted effect of over 50% in size; luciferase read-out
Cruzain inh Det = inhibitors of Trypanosoma cruzi cruzain with detergent; P25779; purified cruzain, Z-FR-AMC fluorescence, 0.01% Triton; Potency, µM, for inactives: max response, negative = inhibition, actives largely listed as inhibitors; 200,000 tested, 0.43% active; AID 1478;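 also: plate controls were neutral wells for no effect and buffer without enzyme for full effect; nearly all actives have a fitted effect of over 40% in size; top concentration of the series not given in the record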
Target sequence (P25779 123-467 limits assumed): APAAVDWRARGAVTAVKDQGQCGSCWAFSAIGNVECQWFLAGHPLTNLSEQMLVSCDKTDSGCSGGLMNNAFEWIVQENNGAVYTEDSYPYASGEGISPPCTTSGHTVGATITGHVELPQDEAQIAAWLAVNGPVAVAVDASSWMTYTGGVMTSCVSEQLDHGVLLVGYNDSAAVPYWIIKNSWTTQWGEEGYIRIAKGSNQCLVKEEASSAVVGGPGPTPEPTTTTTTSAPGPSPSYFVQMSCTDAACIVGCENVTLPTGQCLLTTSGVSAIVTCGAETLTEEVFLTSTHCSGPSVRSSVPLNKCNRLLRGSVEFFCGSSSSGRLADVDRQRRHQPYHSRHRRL
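Cruzain (1.5 nM) preincubated 15 min at RT with compound in 100 mM sodium acetate pH 5.5, 5 mM DTT, 0.01% Triton X-100. Reaction started with 2 uM Z-FR-AMC; AMC fluorescence (ex 360/em 450 nm) change over 60 s gave rate.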
StopGo reporter = lowers the luciferase signal of an FMDV 2A StopGo reporter; Potency, µM (doses to about 57.9 µM), without a hit: at the highest dose signal change, negative = less light; human cells with a luciferase reporter of 2A StopGo recoding; control for the full effect not named in the record; 410,000 tested, 1.2% active; active = well fitted falling curve with a large enough effect; inconclusive = small, poorly fitted or top-dose-only effect; inactive = no such curve, though single readings can be large or run the other way; tested in HEK293T cells; also: % is scaled to controls: 0 for no effect and ±100 for the full control effect; nearly all actives have a fitted effect of over 45% in size; luciferase light after 4 h
SARS PLP yeast = SARS-CoV PLP inhibition in yeast; S. cerevisiae expressing SARS-CoV PLpro, growth rescue; control for the full effect not named in the record; Potency, µM (doses to about 32.9 µM), for inactives: top-dose activity, positive = growth rescue; 330,000 tested, 0.19% active; AID 485353; active means well fitted rising curve with a large enough effect; inconclusive means small, poorly fitted or top-dose-only effect; inactive means no such curve, though single readings can be large or run the other way; also: 0% is about no effect; nearly all actives have a fitted effect of over 55% in size; growth read by luminescence after 48 h
Cruzain inh noDet = blocks cruzain activity in detergent-free assay; 200,000 tested, 2.3% active; P25779; purified cruzain, Z-FR-AMC fluorescence, no detergent; AID 1476; Potency, µM, inactives show max response, negative = inhibition, hits mostly inhibitors;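 also: plate controls were enzyme without inhibitor for no effect and buffer without enzyme for full effect; nearly all actives have a fitted effect of over 40% in size; top concentration of the series not given in the record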
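Purified cruzain at 1.5 nM, pre-incubated 15 min with compound at room temperature in 100 mM sodium acetate pH 5.5, 5 mM DTT, 0.00005% Triton X-100. Reaction started with 2 uM Z-FR-AMC; AMC fluorescence increase over 60 s gives rate.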
MARV entry inh = inhibitors of Marburg virus binding or cell entry | AID 540276 | Potency, µM (highest dose often 37.8 µM), for the others: top-dose activity change, negative = inhibition, hits mostly inhibitors | Marburg virus pseudotyped entry inhibition, cell reporter; control for the full effect not named in the record; about a third of the inactives were read at about 46 µM | 300,000 tested, 1.8% active; active = well fitted inhibition curve with a large enough effect; inconclusive = small, poorly fitted or top-dose-only effect, or effect the other way; inactive = flat fitted curve, though single readings scatter; tested in HEK293 cells; about a fifth of its hits are not listed in these tables; also: % is scaled to controls: 0 for no effect and ±100 for the full control effect; luciferase read-out
RE007 growth inh = less growth of the S. pombe RE007 Vpr strain; S. pombe RE007 Vpr strain, BacTiter-Glo ATP luminescence, 24 h; control for the full effect not named in the record; Potency, µM (highest dose often 92.2 µM), for the others: at the top dose activity change, negative = less growth; 360,000 tested, 0.21% active; active = well fitted falling curve with a large enough effect; inconclusive = small, poorly fitted or top-dose-only effect; inactive = no such curve, though single readings can be large or run the other way;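 also: % is scaled to controls: 0 for no effect and ±100 for the full control effect; nearly all actives have a fitted effect of over 50% in size; the assay follows cell death caused by Vpr and the record does not say whether a fall means rescue or toxicity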
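Fission yeast RE007 carrying one integrated HIV-1 vpr copy, seeded at OD 0.01 in PMG+AL medium with 23 nL pinned compound. Grown 24 h at 30 degrees; viability read by BacTiter-Glo luminescence after 5 min.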
Starred values were filed as active, the others as inactive; ? = inconclusive; . = no result given; & = joins results of further samples; [ ] = dose if it differs, or a comment. Unless noted, calls follow the shape of the dose curve; as a rule, active = well fitted curve in the direction sought with a large enough effect; inconclusive = small, poorly fitted or top-dose-only effect, or another doubt; inactive = no such curve, though single readings can be large; an effect the other way counts as inactive or inconclusive. Potency is read from the fitted curve at half-maximal effect.

Values run as follows: NS1 function inh, LASV entry inh, Cruzain inh Det, StopGo reporter, SARS PLP yeast, Cruzain inh noDet, MARV entry inh, RE007 growth inh
CCCn1c(SCC(=O)NC(C)(C)C)nnc1C(C)C
    -1.5%, -1.4%, 2.1%, -16.8%, -2.7%, -4.7%, 10.4%[46.1 µM], -12.8%
COc1ccc(/C=C2\SC(=O)N(CC(=O)N(C)C3CCS(=O)(=O)C3)C2=O)cc1 (stereo not drawn)
    18.1%, ., ., -6.1%, -7.2%, ., ., 5.8%
COc1cc2nc(NC(=O)c3ccc(S(=O)(=O)N4CCc5ccccc54)cc3)sc2cc1OC
    ., -24.4%[46.1 µM], -2.0%, ?, ., -28.4%, ., .
CC(OC(=O)c1cccc(-n2cnnn2)c1)C(=O)Nc1ccccc1F (stereo not drawn)
    ., -14.1%, ., -15.8%, -3.3%, ., -13.4%, 7.3%
CCOC(=O)c1c(-c2ccc(OC)c(OC)c2)csc1NC(=O)c1ccccc1F
    ., -5.5%[46.1 µM], -1.0%, 0.0%, ., 2.5%, 16.6%[46.1 µM], .
O=S(=O)(CCN1CCOCC1)c1ccc(Oc2ccc(S(=O)(=O)CCN3CCOCC3)cc2)cc1
    1.2%, -0.7%, ., ?, -2.5%, ., ?, -13.5%
CSc1cccc(CN2CCC(Oc3cccc(C(=O)N4CCCC4)c3)CC2)c1
    -4.9%, ?, ., ?, 2.4%, ., -16.6%, -19.9%
Cc1ccc(Cl)cc1Nc1nn2c(=O)c3ccc(C(=O)NC4CCC(C)CC4)cc3nc2s1 (stereo not drawn)
    ., 10.1%[46.1 µM], 1.3%, -17.6%, ., -7.5%, ., .
CCc1ccc(NC(=O)CCn2cccc2)cc1
    -11.6%, 14.0%, -0.3%, 65.4%[activator], -0.1%, -3.2%, 12.4%, -6.5%
O=C(c1cc([N+](=O)[O-])ccc1Cl)N1CCc2ccccc21
    2.2%, -11.4%, ., -15.2%, 7.7%, ., -4.1%, -11.5%
CC(=O)Nc1ccc(NC(=O)COc2cccc3c2OC(C)(C)C3)cc1
    2.1%, -7.6%[46.1 µM], ., -0.3%, -1.0%, ., ?, -0.7%
N#Cc1sc2nc3c(cc2c1N)CCCC3
    -7.8%, -0.7%, -6.6%, 0.3%, -52.9%, -4.0%, ?, 1.8%
CCC(C)C(=O)Nc1nnc(-c2cccs2)s1 (stereo not drawn)
    -2.1%, 18.2%, -3.8%, 60.1%[activator], -14.3%, 11.8%, -4.4%[46.1 µM], -9.2%
CCOc1ccc(C(=O)Nc2ccc(NC(=O)c3ccccc3)cc2)cc1Br
    26.0%, ?, 0.6%, -16.2%&-8.8%, 8.0%, -3.0%, ., -3.8%
CCOc1ccc(N(CC(=O)NCCc2ccc(OC)cc2)S(C)(=O)=O)cc1
    -0.2%, ., ., -0.1%, -0.4%, ., ., 10.6%
COc1ccccc1C(=O)NNC(=O)c1cccc(F)c1
    -9.2%, ?, 0.9%, -25.4%, -10.2%, 1.2%, ?, -19.0%
CCN(CC)C(=O)CSc1nnc(-c2ccc(O)cc2)n1CC1CCCO1 (stereo not drawn)
    4.7%, 3.2%, 4.5%, -1.5%, -1.4%, 2.0%, 4.8%, -6.5%
O=C(CCCc1nc2ccccc2s1)Nc1ccccc1
    ., -7.6%[46.1 µM], ., 23.7%, -0.8%, ., 16.0%[46.1 µM], -12.7%
Cc1ccc(S(=O)CCNC(=O)Cc2ccc(Cl)cc2)cc1 (stereo not drawn)
    2.3%, -1.0%[46.1 µM], ., 12.5%, -0.3%, ., -4.0%[46.1 µM], 3.1%
O=C(C1CCCN(C2CC(=O)N(c3ccc(Cl)cc3)C2=O)C1)N1CCCC1 (stereo not drawn)
    -11.9%, -3.3%, ., -4.3%, -20.1%, ., -9.0%, 5.62µM*
O=C1c2ccccc2NC(c2cccc(O)c2)N1NS(=O)(=O)c1ccccc1 (stereo not drawn)
    ., ?, ., -12.8%, -1.6%, ., ?, 10.8%
CCc1ccccc1NC(=O)N1CCC(NC(=O)C(Cc2ccc(OC)c(OC)c2)NC(C)=O)CC1 (stereo not drawn)
    15.3%, 3.8%, 2.1%, -18.1%, 0.2%, -1.8%, -8.9%, 21.5%
CNCc1nc2ccccc2[nH]1
    3.6%, 2.0%, ., -10.3%, 0.4%, ., 1.0%, -1.1%
O=C1C(Cl)=C(N2CCCC2)C(=O)N1c1ccc(F)cc1
    13.8%, 8.5%, ., 55.1%[activator], 3.6%, ., 1.8%, -7.1%
N/C(CN1CCCC1=O)=N\OC(=O)c1ccccc1Cl
    -8.3%, -4.1%, -1.0%, 66.3%[activator], 2.1%, 1.2%, ?, 19.5%
Cc1ccc(-n2c(SCC(=O)N3CCOCC3)nnc2-c2cccnc2)cc1
    -3.8%, ?, 3.6%, 28.9%, -4.6%, -2.3%, 16.2%, -0.2%
N#CC1=C(N)SC(N)=C(C#N)C1c1cccc(O)c1
    8.1%, 11.6%, -8.4%, ., 1.3%, -6.3%, -11.8%, ?
Cc1oc(-c2ccccc2)cc1C(=O)NC(Cc1c[nH]c2ccccc12)C(=O)O (stereo not drawn)
    16.5%, 9.7%, -15.3%, 9.5%, -24.2%, ?, 3.7%, -21.1%
CCCCOc1ccc(/C=C/C(=O)Nc2ccc([N+](=O)[O-])cc2C)cc1
    1.5%, 0.1%, -1.0%, 0.0%, 2.8%, 25.1µM*, -6.6%, 7.1%
CSCCC(NC(=O)c1ccc(Cl)cc1Cl)C(=O)N(C)Cc1nc2ccccc2c(=O)[nH]1 (stereo not drawn)
    ., -1.4%, ., -8.6%, -0.4%, ., -10.9%, 5.9%

(list continues)
SMILES | NS1 function inh | LASV entry inh | Cruzain inh Det | StopGo reporter | SARS PLP yeast | Cruzain inh noDet | MARV entry inh | RE007 growth inh
O=C(COC(=O)CNS(=O)(=O)c1ccc(Br)cc1Cl)NC1CCCC1 | . | 16.2% | . | -6.7% | 0.3% | . | 10.4%[46.1 µM] | -6.1%
CCOc1ccc(CN2CCN(C3CCC3)CC2CCO)cc1 (stereo not drawn) | 10.3% | -7.8%[46.1 µM] | . | 3.1% | -3.1% | . | 2.0%[46.1 µM] | 7.1%
O=C(N/C(=C\c1ccc([N+](=O)[O-])cc1)C(=O)N1CCOCC1)c1ccco1 | 16.0% | 0.0%[46.1 µM] | . | -0.5% | 1.1% | . | -5.8%[46.1 µM] | 3.3%
O=c1[nH]c(=O)n(Cc2ccc(F)cc2)c(O)c1C=NCCCO | -3.2% | 1.6% | 3.9% | -3.8% | -5.7% | -6.4% | 1.7% | -10.0%
O=C(OCCN1C(=O)c2cccc3c(N4CCOCC4)ccc(c23)C1=O)c1ccccc1Cl | ? | ? | -1.3% | ? | -2.1% | 15.2% | 7.08µM* | 4.5%
COc1cc(C2C(C#N)=C(N)Oc3c2oc(CO)cc3=O)ccc1OC(C)C (stereo not drawn) | 0.8% | 3.3% | 1.7% | -3.7% | -2.6% | -10.5% | -2.4% | 0.6%
CCO/N=C(/C)c1c(O)c(C)c(-c2ccccc2)n(-c2ccccc2)c1=O | -7.1% | -4.0% | -5.7% | 5.5% | -10.1% | -5.7% | 4.7% | 1.1%
Cc1nn(-c2ccccc2)c(Cl)c1C1C(C#N)=C(N)OC2=C1C(=O)CC(C)(C)C2 (stereo not drawn) | 2.5% | -28.2% | -1.4% | ? | -5.4% | 3.3% | ? | 24.0%
COc1ccc(N/C=C/c2nc(SC)nnc2C)cc1 | . | -21.2%[46.1 µM] | . | -16.1% | 1.1% | . | ? | -21.3%
c1ccc(CNc2nc3c(-c4ccccc4)nnn3c3ccccc23)cc1 | . | ? | 0.0% | 5.8% | . | 2.1% | 19.9%[46.1 µM] | .
Cn1c(=O)n(C)c2cc(NC(=O)Cc3ccccc3[N+](=O)[O-])ccc21 | 3.9% | . | . | -6.6% | -3.9% | . | . | 3.5%
COCn1c(-c2ccc(OC)c(OC)c2)nc2ccccc21 | -32.4% | 3.2% | 1.0% | 37.8%[activator] | 2.4% | -4.4% | ? | 3.6%[3.69 µM]
CC(C)(C)NC(=O)C(c1ccc(O)cc1)N(C(=O)CCC(=O)Nc1nccs1)c1cccc(F)c1 (stereo not drawn) | -4.3% | -0.2%[46.1 µM] | . | 15.5% | 0.4% | . | 2.31µM* | 18.3%
Cc1ccc(NC(=O)NCc2ccc3c(c2)OCO3)cc1 | -7.6% | 6.7% | 5.0% | 54.4%[activator] | 7.3% | -11.8% | ? | 19.2%
O=C(CSc1nccn1-c1ccc(F)cc1)Nc1nc2ccccc2s1 | . | 7.8%[46.1 µM] | 2.9% | 14.9% | . | -10.5% | . | .
O=C(NCCc1ccccc1)C(c1ccc(F)cc1)N(C(=O)c1csnn1)C1CC1 (stereo not drawn) | 12.1% | -3.1%[46.1 µM] | . | -0.1% | -2.1% | . | -16.8%[46.1 µM] | -12.7%
Cc1ccc(-c2noc(CNc3ccccc3)n2)cc1 | -13.9% | 11.2% | -8.0% | 48.7%[activator] | -23.6% | 3.6% | ? | 18.2%
